RXFP1 agonist: activates the human relaxin receptor RXFP1; Q9HBX9; HEK293T-RXFP1 cAMP TR-FRET, 30 min; response scale: percent of porcine relaxin response, buffer zero; Potency, µM (doses to about 57.5 µM), for the others: at the top dose activation, actives largely listed as activators; 370,000 compounds, 0.3% hits; further: potency means the concentration at half of the fitted maximal effect; on the % scale 0 is the no-effect control and ±100 the full control effect; nearly all actives have a fitted effect of over 60% in size; many of its hits are not listed in these tables
Target sequence (Q9HBX9 whole entry, looked up): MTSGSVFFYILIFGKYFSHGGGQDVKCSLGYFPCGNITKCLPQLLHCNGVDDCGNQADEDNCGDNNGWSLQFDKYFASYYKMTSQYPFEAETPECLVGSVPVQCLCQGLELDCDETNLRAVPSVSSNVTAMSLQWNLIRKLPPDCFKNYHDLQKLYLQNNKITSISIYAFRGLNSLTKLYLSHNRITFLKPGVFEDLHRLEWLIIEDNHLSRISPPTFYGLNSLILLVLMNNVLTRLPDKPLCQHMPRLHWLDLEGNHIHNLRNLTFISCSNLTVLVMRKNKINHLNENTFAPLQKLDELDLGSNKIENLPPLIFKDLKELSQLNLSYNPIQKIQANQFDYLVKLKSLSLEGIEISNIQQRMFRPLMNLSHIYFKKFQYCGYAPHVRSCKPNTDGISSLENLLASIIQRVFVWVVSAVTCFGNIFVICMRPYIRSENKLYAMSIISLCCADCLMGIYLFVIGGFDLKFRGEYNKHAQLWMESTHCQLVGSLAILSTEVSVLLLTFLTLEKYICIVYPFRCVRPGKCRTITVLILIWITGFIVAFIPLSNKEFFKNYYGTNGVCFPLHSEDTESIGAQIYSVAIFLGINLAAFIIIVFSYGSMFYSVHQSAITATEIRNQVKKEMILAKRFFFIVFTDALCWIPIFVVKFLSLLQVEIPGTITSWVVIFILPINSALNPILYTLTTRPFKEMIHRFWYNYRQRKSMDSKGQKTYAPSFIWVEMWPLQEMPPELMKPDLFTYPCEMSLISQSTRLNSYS
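cAMP rise read by TR-FRET after 30 min, 37C compound exposure (up to 58 uM) in RXFP1-transfected HEK293 cells with Ro 20174 present. EC50 from Hill-equation fits, with 29 nM porcine relaxin as 100% and buffer as basal.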
RXFP1 antagonist: blocks the human relaxin receptor RXFP1 | HEK293-RXFP1, relaxin-stimulated cAMP HTRF, 30 min; hits give low values | activity change, negative = inhibition, % at 57.5 µM | 350,000 compounds, 0.59% hits | AID 1259400;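 active means activity change of -60% or lower, but not beyond a set lower limit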; further: on the % scale 0 is the no-effect control and ±100 the full control effect
Apoferritin bind: binds horse apoferritin like a general anesthetic; P02791; apoferritin/1-aminoanthracene competitive binding, fluorescence; 350,000 compounds, 0.074% hits; Potency, µM (titrated, usually from 77.5 µM), for the others: at the top dose activity change, negative = displacement, hits mostly inhibitors; AID 485281; further: potency means the concentration at half of the fitted maximal effect; on the % scale 0 is the no-effect control and ±100 the full control effect; nearly all actives have a fitted effect of over 20% in size
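Horse-spleen apoferritin (10 uM) in 50% saturated 1-aminoanthracene in PBS was incubated 10 min at room temperature with compound. Fluorescence (ex 380, em 535 nm) was normalized to free and bound 1-AMA, with concentration-response fitted by a four-parameter Hill equation.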
TRHR agonist: agonists of human TRH receptor | P34981 | TRHR cells, calcium flux fluo-8, FDSS agonist mode | activation, % at 2 µM | 360,000 compounds, 0.18% hits; in the data active means activation above about 30%; further: 0% is about no effect
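Read-out: compound-evoked intracellular calcium rise in TRHR cells, fluo-8 dye, kinetic FDSS fluorescence at 1 s/cycle following a 10-cycle baseline. Cells cultured overnight before dye loading (30 min–1.5 h, RT).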
TRHR PAM: allosteric enhancers of human TRH receptor. P34981. 360,000 compounds, 0.66% hits. AID 493056. enhancement, % at 2 µM. TRHR cells, fluo-8 calcium fluorescence, EC20 TRH enhancement; in the data active means enhancement above about 30%; further: 0% is about no effect
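TRHR-expressing cells loaded with fluo-8 calcium dye were read kinetically (ex 480/em 530) during compound addition, then stimulated with an EC20 of TRH (10 nM final). Enhancement of the Gq-mediated intracellular calcium response was scored.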
Numbers without * were called inactive; . = not tested or not shown; [ ] = another dose, or the depositor's remark. Unless noted, the call rests on the fitted dose curve; in most records, active means well fitted curve in the direction sought with a large enough effect; inconclusive means small, poorly fitted or top-dose-only effect, or another doubt; inactive means no such curve, though single readings can be large; an effect the other way counts as inactive or inconclusive.

No. | SMILES | RXFP1 agonist | RXFP1 antagonist | Apoferritin bind
1 | CCCN1CCC[C@H](c2cccc(O)c2)C1 | -1.6% | . | .
2 | NCCc1ccc(O)cc1 | 4.7% | -14 | -5%
3 | CCC1C2CC3C4N(C)c5ccccc5C45CC(C2C5O)N3[C@@H]1O (stereo not given in full) | 0.3% | 20 | 0%
4 | CN(C)[C@H]1C(=O)C(C(N)=O)=C(O)[C@]2(O)C(=O)C3=C(O)c4c(O)cccc4[C@@](C)(O)[C@H]3C[C@@H]12 | . | . | -3%[29.3 µM]
5 | COc1ccc2c3c1OC1CC(O)C=C[C@@]31CCN(C)C2 (stereo not given in full) | . | . | 2%
6 | CCC1C2CC3C4N(C)c5ccccc5[C@]45CC(C2C5O)N3C1O (stereo not given in full) | . | . | -2%
7 | N[C@@H]1C[C@H]1c1ccccc1 | 0.3% | 9 | .
8 | NCCc1c[nH]c2ccc(O)cc12 | . | . | 4%

No. | TRHR agonist | TRHR PAM
1 | 0.4 | 0
2 | -1.9 | 4
3 | 0.3 | 1
4 | . | .
5 | . | .
6 | . | .
7 | -0.8 | 6
8 | . | .

Complete entries from above.
COc1ccc2c3c1OC1CC(O)C=C[C@@]31CCN(C)C2 (stereo not given in full) in the list: RXFP1 agonist: .; RXFP1 antagonist: .; Apoferritin bind: 2%; TRHR agonist: .; TRHR PAM: .
CCC1C2CC3C4N(C)c5ccccc5C45CC(C2C5O)N3[C@@H]1O (stereo not given in full) in the list: RXFP1 agonist: 0.3%; RXFP1 antagonist: 20; Apoferritin bind: 0%; TRHR agonist: 0.3; TRHR PAM: 1

Three of these compounds in another layout.
1	CCCN1CCC[C@H](c2cccc(O)c2)C1
- RXFP1 agonist = -1.6%
- RXFP1 antagonist = .
- Apoferritin bind = .
- TRHR agonist = 0.4
- TRHR PAM = 0
2	NCCc1ccc(O)cc1
- RXFP1 agonist = 4.7%
- RXFP1 antagonist = -14
- Apoferritin bind = -5%
- TRHR agonist = -1.9
- TRHR PAM = 4
3	CCC1C2CC3C4N(C)c5ccccc5C45CC(C2C5O)N3[C@@H]1O (stereo not given in full)
- RXFP1 agonist = 0.3%
- RXFP1 antagonist = 20
- Apoferritin bind = 0%
- TRHR agonist = 0.3
- TRHR PAM = 1

Screen by screen, quoted from above.
Nos. 3–8 in Apoferritin bind read 0%, -3%[29.3 µM], 2%, -2%, ., 4%

These rows are one share of the data; rates above refer to the full screens.
